# VDR inh: blocks the human vitamin D receptor; Potency, µM, for inactives: max response, negative = inhibition, actives largely listed as inhibitors; P11473; VDR-SRC2-3 peptide fluorescence polarization, 2 h; hit rate 0.93% among 400,000; active = well fitted inhibition curve with a large enough effect; inconclusive = small, poorly fitted or top-dose-only effect, or another doubt; inactive = no such curve, though single readings can be large or run the other way; note: series mostly up to about 120 µM
# Target sequence (P11473 whole entry, looked up): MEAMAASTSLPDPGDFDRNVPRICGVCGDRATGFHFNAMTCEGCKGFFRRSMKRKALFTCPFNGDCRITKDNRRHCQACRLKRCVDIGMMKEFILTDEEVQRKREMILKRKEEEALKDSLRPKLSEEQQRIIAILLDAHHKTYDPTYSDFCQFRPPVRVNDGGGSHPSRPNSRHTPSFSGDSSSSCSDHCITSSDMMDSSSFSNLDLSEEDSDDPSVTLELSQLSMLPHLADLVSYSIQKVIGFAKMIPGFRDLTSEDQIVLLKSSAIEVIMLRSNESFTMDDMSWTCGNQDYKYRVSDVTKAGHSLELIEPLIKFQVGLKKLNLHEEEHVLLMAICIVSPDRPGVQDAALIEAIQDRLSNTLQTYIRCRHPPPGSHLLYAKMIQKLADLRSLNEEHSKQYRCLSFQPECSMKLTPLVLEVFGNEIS
#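 Signal is fluorescence polarization, reporting how far test compounds block the interaction of VDR with the SRC2-3 coregulator peptide after a 2 h room-temperature incubation.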
# * hit, by the source's call; ? = inconclusive; & = joins results of further samples. % is set by controls: 0 for no effect and ±100 for the full control effect; potency is the fitted concentration of half-maximal effect. Not all compounds are listed; rates above refer to the full screens.
VDR inh	Compound
-7%	CCSCc1nc(N)nc(NCCc2ccccc2)n1
-15%	COc1ccc(-n2nc(C(=O)Nc3ccc(C)cn3)c3c4ccccc4n(C)c3c2=O)cc1
4%	CCOC(=O)c1ccc(OCC2c3cc(OC)c(OC)cc3CCN2C(=O)c2ccc(S(=O)(=O)N3CCCC3)cc2)cc1 (stereo not given)
20%	N#Cc1cc(-c2ccccc2)oc1NC(=O)c1ccccc1
-8%	C=CCOc1ccc(/C=C/C(=O)OCC(=O)NNC(=O)c2ccccc2F)cc1
-5%	Cc1cc(C)c(C)c(S(=O)(=O)N2CCN(C)CC2)c1C
7%	COc1cccc(NC(=O)Cc2ccccc2)c1
14%	N#CCCn1cc(/C=N/O)c(-c2ccc(-c3ccccc3)cc2)n1
-12%	CCn1c(SCC(=O)Nc2ccc(Cl)cc2)nnc1C1CC1
-3%	O=C(NC(NC1CCS(=O)(=O)C1)C(=O)c1ccccc1)c1ccc(Cl)cc1 (stereo not given)
6%	Cc1c(CNC(C)c2ccccc2)c(C(=O)O)c(C)n1Cc1c(F)cccc1Cl (stereo not given)
0%	CN(C(=O)CN1C(=O)c2ccccc2S1(=O)=O)c1ccccc1C(=O)O
-26%	COc1ccc(C#Cc2c(-c3ccsc3)oc3ccc(-c4cc(OC)c(OC)c(OC)c4)cc23)cc1
-6%	S=C(c1ccc2c(c1)OCO2)N1CCCC1
10%	CN1CN(C)c2cccc3cccc1c23
1%	O=C(CSc1nc(Nc2ccccc2)nc(N2CCOCC2)n1)Nc1ccc(Br)cc1F
13%	Cn1c(N)c(C(=O)COC(=O)COc2ccc(Cl)cc2)c(=O)n(C)c1=O
-100%	O=C1C2C3C=CC(CO)(O3)C2C(=O)N1c1ccccc1-c1ccccc1 (stereo not given)
21%	COc1cccc(N2CCN(C(=S)Nc3cc(C)cc(C)c3)CC2)c1
-7%	COc1ccc(C(=O)Nc2cccc(-c3cn4ccsc4n3)c2)c(OC)c1
21%	O=C(Nc1ccc(F)cc1)c1ccc2nc[nH]c2c1
-4%	CN1CCC(N(C)S(=O)(=O)c2ccc(NC(=O)c3ccc(S(=O)(=O)N(C)C)cc3)cc2)CC1
6%	COc1ccc(OCCSc2ncc(CO)n2C)cc1
-21%	Nc1nc(N2CCN(c3ccccn3)CC2)nc2ccccc12
-14%	CC(=O)Nc1ccc(S(=O)(=O)NCCC(=O)N2CCN(c3ccccc3Cl)CC2)cc1
1%	Cc1c(NC(=O)c2cccs2)cccc1-c1nc2ccccc2s1
11%	Cn1ccnc1C(=O)c1ccc(S(=O)(=O)N2CCCC2)cc1
-20%	CCCCOc1ccc(/C=C/C2=CC(C)(C)NC(=S)N2)cc1OCC
-2%	CC(=O)Nc1ccc(S(=O)(=O)N2CCC(c3nc4ccc(C)cc4[nH]3)CC2)cc1
6%	CN1CCC(OC(=O)Cc2ccc(Cl)cc2)CC1
9%	COc1ccc(C2C(C(=O)N3CCN(c4ccccn4)CC3)CC(=O)N2c2ccc(OC)cc2)cc1 (stereo not given)
-1%	COc1ccc(NC(=O)CSc2nc3ccccc3c(=O)n2CCCN2CCC(C)CC2)c(OC)c1
-2%	CC1CCCN(Cc2nc3c(c(=O)n(C)c(=O)n3C)n2Cc2ccc(Cl)cc2)C1 (stereo not given)
16%	O=C(CN1CCN(c2ccc(Cl)cc2)CC1)Nc1ccc(Cl)c(C(F)(F)F)c1
6%	COc1cc(/C=N/NC(=O)c2cccc(NC(=O)c3ccccc3C)c2)ccc1O
-28%	O=C(O)C1Cc2c([nH]c3ccccc23)C(c2coc3ccccc3c2=O)N1 (stereo not given)
3%	COc1ccc(CCNC(=O)CCSCc2ccccc2F)cc1OC
-10%	CCOc1ccc(NC(=O)C(c2ccccn2)N(C(=O)CCl)c2ccc(OCC)cc2)cc1 (stereo not given)
1%	CCOC(=O)c1cnc(SC)nc1Sc1ccc(Cl)cc1Cl
2%	O=C(CCN1C(=O)/C(=C/c2ccccc2)SC1=S)NNC(=O)c1ccncc1
-4%	O=C(c1ccccc1C(=O)N1CCN(c2ccccc2F)CC1)N1CCN(c2ccccc2F)CC1
-4%	CCOc1ccc(N(CC(=O)Nc2ccc(C)cc2C)S(C)(=O)=O)cc1
0%	CCOC(=O)c1cnc2ccc(C(=O)OC)cc2c1NCCCN1CCOCC1
6%	CC(C)CCn1c(=O)c2sccc2n2c(CCCC(=O)NCc3ccc(F)cc3)nnc12
2%	COc1ccc(C)cc1NC(=O)CSc1nnc(CC(=O)Nc2ccccc2C)n1C
-15%	CCOC(=O)C1CCN(S(=O)(=O)c2ccc3[nH]c4c(c3c2)CCCC4)CC1
-1%	Cc1ccc(C(=O)NCCc2ccc(S(N)(=O)=O)cc2)cc1-n1cnc2cccnc21
7%	CCOc1ccc(NC(=O)c2cnc3ccccn3c2=O)cc1
3%	Cc1ccccc1N1C(=O)C(Oc2ccc(Cl)cc2)C1CNCCCOC(C)C (stereo not given)
-12%	COc1ccc(NS(=O)(=O)c2c(C)cc(C)cc2C)cc1
-2%	COc1ccc(/C=C/C2=CCN(Cc3ccc(OC)cc3)CC2)cc1
-5%	CCOc1ccccc1NS(=O)(=O)c1csc(C(N)=O)c1
-16%	C/C(=N\NC(=O)c1cc(-c2ccncc2)nc2ccccc12)c1ccc(N2CCOCC2)cc1
?	CC(C)N(C(=O)CS(=O)(=O)c1ccc(Cl)c(Cl)c1)C(C)C
6%	CC(C)Cn1c(N)c(C(=O)COC(=O)c2cnccn2)c(=O)n(C)c1=O
-14%	CC(C)CN1CCN=C1Nc1ccccc1
-10%	CC(=O)Nc1ccc(NC(=O)C2CCN(c3c(Cc4ccccc4)c(C)nc4ncnn34)CC2)cc1
-14%	Nc1nc(-c2ccc(Cl)cc2)nnc1-c1ccc(Br)cc1
3%	Cc1ccc(OCC(=O)Nc2ccc3nc(SCC(=O)N(C)c4ccccc4)sc3c2)cc1
-2%	O=C(NC1C2CC3CC(C2)CC1C3)C1CCCCC1 (stereo not given)

# 3 compounds already listed, ordered by SMILES length, highest first:
VDR inh	Compound
-2%	COc1ccc(/C=C/C2=CCN(Cc3ccc(OC)cc3)CC2)cc1
-5%	CCOc1ccccc1NS(=O)(=O)c1csc(C(N)=O)c1
-14%	CC(C)CN1CCN=C1Nc1ccccc1

# Some of the entries so far, as labelled records:
N#Cc1cc(-c2ccccc2)oc1NC(=O)c1ccccc1
  VDR inh: 20%

CC(C)Cn1c(N)c(C(=O)COC(=O)c2cnccn2)c(=O)n(C)c1=O
  VDR inh: 6%

CC(C)N(C(=O)CS(=O)(=O)c1ccc(Cl)c(Cl)c1)C(C)C
  VDR inh: ?

O=C(CSc1nc(Nc2ccccc2)nc(N2CCOCC2)n1)Nc1ccc(Br)cc1F
  VDR inh: 1%

# (continued)
VDR inh	Compound
1%	CCOc1ccc2nc(SCC(=O)N3CCCCCC3)c(C#N)cc2c1
-10%	CCn1c(C)cc(C(=O)CN2C(=O)c3ccccc3S2(=O)=O)c1C
0%	COc1ccc(Cl)cc1N(CC(=O)N1CCCC1)S(C)(=O)=O
9%	COc1ccc(CNC(=O)c2cnn(-c3ccc(OC)cc3)c2C2CCN(C(=O)OC(C)(C)C)CC2)cc1
-5%	CC12C=CC(=O)C=C1CCC1C3CCC(O)(C(=O)CO)C3(C)CC(O)C12F (stereo not given)
-6%	Cc1ccc(C)c(NC(=O)CN(C)C(=O)c2cc([N+](=O)[O-])ccc2N2CCOCC2)c1
-3%	COc1ccc(-c2cc(C)no2)cc1S(=O)(=O)N1CCN(C(=O)c2ccco2)CC1
-3%	COc1ccccc1C(=O)n1nc(-c2ccccc2)nc1NCc1ccco1
-11%	Fc1cccc(-c2c(-c3ccccc3)ncc3cc(F)ccc23)c1
-10%	Cc1cc(=O)[nH]c(SCc2cccc(F)c2)n1
-2%	COc1ccc(Cn2c(=O)sc3ccccc32)cc1
2%	CCOC(=O)N1CCN(C(=O)c2cccc(-n3c(=S)[nH]c4cc(Cl)ccc4c3=O)c2)CC1
29%	Cc1ccc(-n2c(=O)c3ccc(C(=O)NCc4ccco4)cc3n(CC(=O)Nc3ccc(C)c(F)c3)c2=O)cc1
-3%	COc1ccc(NC(=O)Nc2cc(C)ccc2OC(F)F)c(OC)c1
-5%	CN(C)c1ncc2nc(-c3cccc(C#N)c3)c(=O)n(C)c2n1
-11%	CC(NS(=O)(=O)OCC(Cl)(Cl)Cl)c1ccc(C(C)(C)C)cc1 (stereo not given)
?	Cc1c(/C=C(\CC(=O)O)c2nc3ccccc3s2)cc(C#N)n1C
-10%	O=C(N/N=C\c1cc(Cl)ccc1O)c1ccc(S(=O)(=O)N2CCCCC2)cc1
-8%	Cc1cccc(C(=O)c2c(N)sc3c2CCC(C)C3)c1 (stereo not given)
?	COc1ccc(-c2nc(SCc3ccc(C#N)cc3)[nH]c(=O)c2C#N)cc1
28%	O=C(COc1cccc2cccnc12)Nc1cccc(S(=O)(=O)N2CCCC2)c1
6%	O=C(CN1C(=O)C2(SCC(=O)N2c2ccc(F)cc2)c2ccccc21)NC1CCCCC1 (stereo not given)
-22%	CC(CO)(CO)NCc1ccc(-c2ccccc2)cc1
-15%	Clc1c(Cl)c(Cl)c2n[nH]nc2c1Cl

# Next part; the last seven above are carried over.
VDR inh	Compound
-10%	O=C(N/N=C\c1cc(Cl)ccc1O)c1ccc(S(=O)(=O)N2CCCCC2)cc1
-8%	Cc1cccc(C(=O)c2c(N)sc3c2CCC(C)C3)c1 (stereo not given)
?	COc1ccc(-c2nc(SCc3ccc(C#N)cc3)[nH]c(=O)c2C#N)cc1
28%	O=C(COc1cccc2cccnc12)Nc1cccc(S(=O)(=O)N2CCCC2)c1
6%	O=C(CN1C(=O)C2(SCC(=O)N2c2ccc(F)cc2)c2ccccc21)NC1CCCCC1 (stereo not given)
-22%	CC(CO)(CO)NCc1ccc(-c2ccccc2)cc1
-15%	Clc1c(Cl)c(Cl)c2n[nH]nc2c1Cl
4%	CC1C(=O)CC2C3(C)CCC2(C(C)C(=O)O)C(=O)C13 (stereo not given)
-16%	Cc1ccc(NC(=S)N(CCN(C)C)C(C)c2cccnc2)cc1 (stereo not given)
-18%	COC(=O)[C@H](C(C)C)N(Cc1ccccc1)S(=O)(=O)CCN1CCCC1
4%	COc1ccc(C(CNC(=O)c2cc3c(s2)CCC(C)C3)N2CCCC2)cc1 (stereo not given)
-14%	COc1cc2cc(CCOC(=O)c3ccc(C(F)(F)F)cc3)oc(=O)c2cc1OC
4%	COc1cccc(NC(=O)CSc2nc3ccccc3c(=O)n2CCCC(=O)NCCCN2CCOCC2)c1
4%	COc1ccc(NC(=O)CCC2COc3ccccc3O2)c(OC)c1 (stereo not given)
-3%	CCOc1ccc(C(C)=O)cc1CN1C(=O)c2ccccc2S1(=O)=O
13%	CC1(C)CC(=O)C(C=NCCCN2CCCC2=O)=C(O)C1
12%	O=Cc1cc(-c2ccccc2)[nH]c1-c1ccccc1
6%	O=C(CNC(=S)N(CCCN1CCOCC1)Cc1cccs1)N1CCOCC1
?	Cc1ccccc1S(=O)(=O)N1[C@@H](c2ccc(Cl)cc2)C(C(=O)O)=CC[C@H]1c1ccc(Cl)cc1
-14%	Cc1cccc(C(=O)Oc2ccccc2C(=O)N2CCOCC2)c1
-10%	O=C(CCOc1ccccc1)N(Cc1cccnc1)c1nc2ccc(F)cc2s1
12%	COc1ccccc1-c1cc(C(=O)NCc2ccco2)no1
8%	CCCc1nnc(NC(=O)CCC(=O)O)s1
-23%	COC(=O)Cc1cc(=O)n2[nH]c(C)nc2n1
5%	COc1cccc(CNC(=O)CNC(=O)c2cccs2)c1
-11%	Cc1ncc([N+](=O)[O-])n1Cc1ccccc1
?	CCOC(=O)C(Sc1nnc2c3ccccc3n(CC)c2n1)C(=O)OCC
-4%	CCOC(=O)N1CCN(Cc2nc(N)nc(Nc3ccc(OC)cc3)n2)CC1
-3%	CCc1ccccc1NC(=O)CNC(=O)c1n[nH]c(=O)c2ccccc12
-8%	CSCCC(NS(=O)(=O)c1ccc2c(c1)oc(=O)n2C)C(=O)Nc1ccc(Cl)cc1 (stereo not given)
11%	CCc1ccc(-c2nc(CS(=O)CC(=O)NC3CCCCCC3)c(C)o2)cc1 (stereo not given)
-10%	O=C(NCCCCc1ccccc1)C12CN(Cc3ccccc3)CC1C(c1ccc([N+](=O)[O-])cc1)=NO2 (stereo not given)
-8%	CCNc1nc(NCC)n2c(SCC(=O)Nc3ccc(F)cc3)nnc2n1
-4%	Cc1cccnc1NC(=O)c1ccc(NS(=O)(=O)/C=C/c2ccccc2)cc1
-12%	CCOC(=O)c1c(NC(=O)CSc2nccc(=O)[nH]2)sc(C)c1C
?	O=C(Cc1cc(=O)oc2cc(O)ccc12)NC(Cc1ccc(Cl)cc1)C(=O)O (stereo not given)
?	COC(=O)C1=C(C)NC2=C(C(=O)CCC2)C1c1ccc(-c2ccsc2C(=O)OC)o1 (stereo not given)
-11%	COc1cc(/C=N/NC(=O)CSc2n[nH]c(=O)[nH]c2=O)cc(OC)c1O
-21%	O=C1C=C(c2ccc(C(=O)O)cc2)C[C@@H](c2ccc(F)cc2)C1
-18%	COc1ccccc1CCC(=O)Nc1ccc(S(=O)(=O)Nc2nccs2)cc1
-18%	CC(C)NC(=O)COc1ccc(OCc2ccccc2)cc1
?	O=C1CCCN1C(=O)COc1cc(F)ccc1[N+](=O)[O-]
-5%	CCOC(=O)C1CCN(S(=O)(=O)c2cccc(-c3cn4cccnc4n3)c2)CC1
22%	O=C(NCc1csc(-c2cccs2)n1)c1cccc(Cl)c1
-17%	NCCCC[C@H]1CNC(=O)C(=O)N1CCc1cccc2ccccc12
5%	CS(=O)(=O)N(Cc1ccc(C(=O)NCc2ccco2)cc1)c1ccccc1
-9%&7%	O=C(Nc1nnc(S(=O)(=O)N2CCCC2)s1)c1ccccc1Cl
20%	CC(C)COCC1CC2(CC(C)(c3csc(N)n3)OC2=O)C(=O)O1 (stereo not given)
15%	O=C(c1ccco1)N1CCN(C2=NS(=O)(=O)c3ccccc32)CC1

# From PubChem
